High-throughput results (PubChem)
Autofluor counter – flagged as autofluorescent in microsphere protease counterscreen | compound autofluorescence counterscreen, microsphere flow cytometry; hits give high values | fluorescence intensity (no concentration beside the values) | actives 3.1% (n = 360,000);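 active means at least 3 SD above the mean of all compounds, about 16000 in these data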;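 further: 100 nL of 1 mM stock went into each well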
PrP 5UTR inh – inhibition of PrP 5' UTR reporter expression; cell-based PrP 5' UTR mRNA reporter, plate reader; inhibition, % (test concentration not listed); actives 0.35% (n = 340,000);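 active means every replicate at 50% or more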;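 further: 0 = median of the neutral control wells; tested in H4 reporter cells; numbers are from one replicate; inactives centre near -14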
* marks the source's active call; other numbers are inactive results. These rows are one share of the data (hit frequency here may not be typical).

SMILES,PrP 5UTR inh,Autofluor counter
CC[C@]12C(=O)N(C)C[C@H]([C@@H]3C(=O)N(C)C(=O)[C@@H]31)N2C(=O)c1ccc(Br)cc1,-17,4138
O=C(/C=C/c1cccs1)c1ccco1,-113,3565
C=CC[C@@H](CC(=O)N(CCO)Cc1ccccc1)C(=O)NC[C@@H](OC(=O)[C@@H](CC=C)CC(=O)OC(C)(C)C)c1ccccc1,-48,3916
COC(=O)C1=C(c2ccc(C(C)=O)cc2)C[C@@H]2CC[C@H]1N2C(=O)NCCNC(C)=O,-24,4805
O=C(NCCc1ccccc1)c1ccc(NC(=O)C2CCCCC2)cc1,-29,3640
Cc1ccc(Nc2n[nH]c(=S)s2)cc1F,-20,3521
Cc1ccc(NC(=O)N(O)C2CCCCC2C#N)cc1 (centres undefined),-99,3320
COc1cc(CCCN[C@H](CN)Cc2ccccc2)cc(OC)c1OC,6,5144
COC(=O)C1=C(c2ccc3ccccc3c2)C[C@@H]2CC[C@H]1N2C(=O)N1CCOCC1,-18,2940
O=C1N(c2ccccc2C(F)(F)F)O[C@@]1(c1ccccc1)C1CCCCC1,6,3199
O=C(NNc1nc(N2CCOCC2)nc(N2CCOCC2)n1)c1ccccc1,-27,3552
C=CS(=O)(=O)N(Cc1ccccc1Br)[C@H](CO)CC(C)C,-20,4327
CC(C)(c1cc(Br)c(O)c(Br)c1)c1cc(Br)c(O)c(Br)c1,0,5260
CCOC(=O)CC1c2ccccc2-n2nncc2CN1Cc1ccc(OC)cc1 (centres undefined),-9,4104
CC(C)(C)OC(=O)C[C@H]1C/C=C\C[C@H](CC(=O)N[C@H](CO)Cc2ccccc2)C(=O)N2CCC[C@@H]2COC1=O,12,3717
Cc1ccc2c(c1)[C@H]1[C@H](CO2)[C@H](c2ccccc2)[C@]2(C)C(=O)Nc3ccccc3C(=O)N12,4,3872
O=C1C[C@H](c2ccc(O)cc2)Oc2cc(O[C@@H]3O[C@H](CO)[C@@H](O)[C@H](O)[C@H]3O)cc(O[C@@H]3O[C@H](CO)[C@@H](O)[C@H](O)[C@H]3O)c21,-20,2885
COc1ccc(NC(=O)C2CC3C=CC2C3)c([N+](=O)[O-])c1 (centres undefined),-17,3043
S=C(NN=Cc1ccccn1)N(Cc1ccccn1)Cc1ccccn1,24,3814
CC(NC1=CC(=O)c2cccnc2C1=O)C(O)c1ccccc1 (centres undefined),-58,3807
O=C(Nc1ccc(C(=O)N2CCOCC2)cc1)C1CCCC1,-15,3377
O=C1C=C(c2cc(Cl)cc(Cl)c2)C[C@@H](c2ccc(F)cc2)C1,-4,3633
CNc1ncnc2c1ncn2[C@@H]1O[C@H](CO)[C@@H](O)[C@H]1O,-20,5888
C=CCC[C@@H](Cc1ccc(F)cc1)C(=O)OCCNC(=O)[C@@H](CC=C)CC(=O)N(CCO)Cc1ccccc1,-4,4086
C[C@@]12C(=O)N(c3cccc(Cl)c3)C(=O)N1[C@@H]1c3ccccc3OC[C@@H]1[C@H]2c1ccccc1,-31,3465
C#CCOCCOCCOCCNc1nc(N2CCN(C(=O)[C@H](CCCCN)n3cc([C@@H](N)CO)nn3)CC2)nc(N2CCN(C(=O)[C@H](CCCCN)n3cc([C@@H](N)CC(C)C)nn3)CC2)n1,-1,3240
Cc1ccc2c(c1N)C(=O)c1ccccc1C2=O,-47,4990
COC(=O)C1=CO[C@@H](O)C2C(CO)=CCC12 (some centres undefined),-12,2735
S=C1NCCN1CC1CCN(CCCC2CCCC2)CC1,-12,3665
COC(=O)C1=C(c2ccc(F)cc2F)C[C@@H]2CC[C@H]1N2C(=O)NCCO,-21,3715
O=C1c2ccccc2-c2c1c1ccccc1c(=O)n2-c1ccccc1,-15,3388
CSc1nc(N)nc2c1ncn2CC(=O)N[C@H](C)c1cccc2ccccc12,-25,3288
CN1N=C(C(=O)N=c2sc3ccccc3n2C)CCC1=O,-20,3863
Nc1c(Br)cc2c(c1Br)C(O)c1ccccc1-2 (centres undefined),1,4206
C[C@]12C(=O)N(c3cccc(Cl)c3)C(=O)N1[C@@H]1c3ccccc3OC[C@@H]1[C@H]2c1ccccc1,-1,3461
CC#C[C@@H](CC)c1ccc2ccn(C)c2c1,-29,5804
Cc1cc(-c2nc3ncccc3o2)ccc1NC(=O)c1ccc([N+](=O)[O-])o1,-21,4029
COc1ccc(S(=O)(=O)Nc2cccc3c2O[C@H](CN(C)Cc2ccc(Cl)c(Cl)c2)[C@@H](C)CN([C@H](C)CO)C3=O)cc1,-9,4131
C#CCN[C@H](C)Cc1ccccc1,-4,6256
CN1CC[C@]23c4ccccc4N[C@H]1[C@]21CCN(C)[C@H]3Nc2ccccc21,-1,5910
O=C(Cc1cccc(NC(=O)C2CCN(C(=O)C3CCC3)CC2)c1)Nc1cccc(C(=O)N2CCOCC2)c1,-32,3693
CCc1ccc([C@@H]2CC=C(C(=O)O)[C@H](c3ccc(F)cc3)N2S(=O)(=O)c2ccc(C)cc2)cc1,-12,4059
COc1ccc([C@H]2CC(=O)C=C(/C=C/c3ccccc3)C2)cc1,-19,3734
COC(=O)C(OC(=O)c1ccccc1)C(C)Br (centres undefined),-1,4023
CNC(=O)COC(=O)C1CCN(S(=O)(=O)c2ccc3c(c2)OCCO3)CC1,-12,4058
COc1ccc([C@H]2CC(=O)C=C(c3ccc(OC)c(F)c3)C2)cc1,-34,3905
C(=NN=C1c2ccccc2-c2ccccc21)c1ccc2c(c1)OCO2,-38,3052
CC(=O)O/N=C1\C(=O)N(Cc2ccc(C)cc2)c2ccccc21,-3,3424
CC(C)(C)[C@H]1COC(=O)CC/C=C\C[C@H](CC(=O)N(CCO)Cc2ccccc2)C(=O)N1,-19,2765
COc1cc(COc2ccc(S(=O)(=O)N3CCOCC3)cc2[N+](=O)[O-])ccc1OC(F)F,-13,3016
O=C(Nc1ccc(Cl)cc1)c1nc[nH]c1C(=O)NCCN(CCNC(=O)c1[nH]cnc1C(=O)Nc1ccc(Cl)cc1)CCNC(=O)c1[nH]cnc1C(=O)Nc1ccc(Cl)cc1,-11,3653
COc1cccc(/C=N/Nc2ccc(S(=O)(=O)Nc3ccccc3C(=O)O)cc2[N+](=O)[O-])c1O,-15,5733
O=C(N[C@H]1C/C=C\C[C@H](CC(=O)N(CCO)Cc2ccccc2)C(=O)NC[C@H](c2ccccc2)OC1=O)OCC1c2ccccc2-c2ccccc21,6,3766
CC(=O)c1cccc(NC(=O)CSc2ccc(-c3cccnc3)nn2)c1,-11,5979
CCN1C(=O)[C@H]2[C@@H](c3ccc(-c4ccccc4)c(OC)c3)N[C@@](CC(C)C)(C(=O)OC)[C@H]2C1=O,-24,3162
C=CC(=O)N1C/C(=C/c2ccccc2)C(=O)/C(=C\c2ccccc2)C1,-8,2922
COc1cc2c(cc1CNC[C@H]1O[C@@H](n3cnc(C(N)=O)n3)[C@H](O)[C@@H]1O)OCO2,-7,3846
C#CCOCCOCCOCCNc1nc(N2CCN(C(=O)CCCCCCCCCCNC(=O)[C@H](CCCCN)n3cc(CCO)nn3)CC2)nc(N2CCN(C(=O)CCCCCCCCCCNC(=O)[C@H](CCCCN)n3cc(CCO)nn3)CC2)n1,-13,4468
O=C1NC(=S)NC(=O)C1=Cc1cccc2cc3ccccc3cc12,1,2972
Cc1cc(=O)oc2cc(O)cc(OCc3ccccc3)c12,-3,3759

Later entries:
SMILES,PrP 5UTR inh,Autofluor counter
COC(=O)C1=C(c2ccccc2OCc2ccccc2)C[C@@H]2CC[C@H]1N2C(=O)NCc1ccc(OC)cc1,-25,3876
CCOc1ccc(C(=O)Cc2ccccc2)cc1,-102,4479
COc1cc(Cl)c(CNC[C@H]2O[C@@H](n3cnc(C(N)=O)n3)[C@H](O)[C@@H]2O)c(Cl)c1O,-7,3791
CC(=O)OC1C(=O)OCC23CCC4(C)OC4C2OC2CC(OC(=O)C=CC=CC(=O)OCCC1C)C3(C)C21CO1 (centres undefined),94*,3480
COC(=O)C1=C(c2ccc(C(C)=O)cc2)C[C@@H]2CC[C@H]1N2C,-24,4016
CC(C)(C)OC(=O)C[C@H]1C/C=C\C[C@H](CC(=O)NCCO)C(=O)NC[C@@H](c2ccccc2)OC1=O,-20,4179
O=S(=O)(O)C(=Cc1ccccc1)c1ccccc1 (tested in a mixture with another compound),-32,3347
COc1cc(C2C3=C(COC3=O)Oc3cc4c(cc32)OCO4)cc(OC)c1OC(C)=O (centres undefined),49,4192
CCOc1ccc(S(=O)(=O)N2CCCCC2)cc1NC(=O)c1ccccc1,2,2904
Cc1cc(/C=N/NC(=O)CC2(C)OCCO2)c(C)n1-c1ccc(Cl)c(Cl)c1,-1,5270
O=C(Nc1ccccc1)O[C@@H]1C[C@H]2CCCC(=O)N3CC[C@@H](C1)[C@@H]23,-9,2942
CC/C=C(\NC(C)=O)c1ccccc1,-24,3897
O=C(NC1CCCCC1c1ccccc1)c1ccccc1 (centres undefined),-17,3275
CCOC(=O)c1c(C)c2c(n1C)CCC/C2=N\O,-14,3564
COc1ccc2c(c1)[C@H]1[C@H](CO2)[C@H](c2ccccc2)[C@]2(C)C(=O)Nc3ccc(C)cc3C(=O)N12,-93,3029
CC1CNC(=S)N(c2ccc(F)cc2)C1=O (centres undefined),-22,3956
CCC1(Cc2ccccc2)C(=O)NC(=S)N(C)C1=O (centres undefined),2,3420
COc1cc(-c2noc(C)c2C(=O)N[C@@H](CO)Cc2ccccc2)cc(OC)c1OC,-13,4030
O=C(N/N=C/c1cc(Br)c(Br)o1)C(O)c1ccccc1 (centres undefined),-13,1977
CN(C)CCCNC(=O)c1ccc(/C=N/O)nc1,-29,2605
COc1cc(NCCCn2ccc(NC(=O)OCc3ccccc3)nc2=O)cc(OC)c1OC,-1,3717
CN(CC(=O)Nc1cc(C(F)(F)F)ccc1-n1cncn1)Cc1nc2ccccc2c(=O)[nH]1,-13,3682
O=[N+]([O-])c1ccc(Oc2cccnc2)c([N+](=O)[O-])c1,-20,3597
O=C(Cc1ccc(NC(=O)C2CCCN(C(=O)C3CCCCC3)C2)cc1)Nc1cccc(C(=O)N2CCCC2)c1 (centres undefined),-8,3081
CC(C)(C)c1nnc(NS(=O)(=O)c2ccc(F)cc2)s1,-19,4829
COc1cc2c(c3ccccc13)CCCC2=O,-16,4321
C[C@@H](NC(=O)c1[nH]cnc1C(=O)Nc1cccc(Cl)c1)c1ccccc1,-14,3930
COc1ccc(S(=O)(=O)NCc2cccnc2)cc1NC(=O)c1ccccc1C,-17,3525
C[C@@H]1CN([C@H](C)CO)C(=O)c2cc(NC(=O)NC3CCCCC3)ccc2O[C@H]1CN(C)S(C)(=O)=O,-16,3840
CN1C[C@@H]2[C@@H]3C(=O)N(Cc4ccccc4)C(=O)[C@@H]3[C@](Cc3ccccc3)(C1=O)N2C(=O)c1ccc(Br)cc1,-13,4287
CC(C)(O)c1cc2ccc(C#Cc3ccsc3)cc2c(=O)o1,-27,4028
O=C1NC[C@H](Cc2ccccc2)N(C[C@H]2CCCN2C[C@H](Cc2ccccc2)N2C[C@H](Cc3ccccc3)N(CC3CCCCCC3)C(=O)C2=O)C1=O,-5,2981
O=C(Cn1cc(COc2ccc(C(=O)c3ccccc3)cc2)nn1)c1ccc(O)cc1,-32,3715
CC1(C)CC2CC(C)(CN2C(=O)COC(=O)c2ccccc2C(F)(F)F)C1 (centres undefined),-10,3539
CCOC(=O)NC1=NCC(C)(C)S1,-26,3608
Cc1cc(C=O)c(C)c2c1[nH]c1ccccc12,2,4269
